# AmpC nodet inh – blocks E. coli AmpC beta-lactamase in absence of detergent; AmpC nitrocefin hydrolysis, absorbance 480 nm, no detergent; potencies from a single point are estimates; Potency, µM (top dose mostly 28.7 µM), inactives show top-dose activity change, negative = inhibition; P00811; actives 1.8% (n = 71,000); active = falling curve, for most hits resting on a single point; inconclusive = weak or doubtful change; inactive = flat or rising curve; note: % of control where 0% means no effect; about half of the hits show no inhibition at the top dose; a quarter of the inactives give rising signals
# Target sequence (P00811 whole entry, looked up): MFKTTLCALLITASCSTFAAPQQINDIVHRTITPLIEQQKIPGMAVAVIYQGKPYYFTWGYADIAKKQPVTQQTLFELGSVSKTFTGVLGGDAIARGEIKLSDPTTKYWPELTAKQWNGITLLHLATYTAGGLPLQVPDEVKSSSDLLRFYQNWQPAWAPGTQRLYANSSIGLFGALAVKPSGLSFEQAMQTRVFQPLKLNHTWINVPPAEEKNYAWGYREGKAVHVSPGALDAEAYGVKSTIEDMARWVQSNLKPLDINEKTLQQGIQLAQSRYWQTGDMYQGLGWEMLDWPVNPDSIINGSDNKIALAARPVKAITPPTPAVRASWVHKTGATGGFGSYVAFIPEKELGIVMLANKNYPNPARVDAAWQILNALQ
#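 AmpC, 20 mM phosphate pH 7.0; 15 min cpd preinc, RT; start with nitrocefin (800 uM stock); A480 kinetic read, 20 s intervals, 4 min. No-enzyme wells = negative control.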
# Starred values were filed as active, the others as inactive; & = joins results of further samples; [ ] = remark or other dose. Potency is the fitted concentration of half-maximal effect. The list is partial; the hit share may differ from the screen's.
smiles	AmpC nodet inh
CC1(C)CN=C(NCc2ccccc2Cl)S1	-17%
CC1CCN(C(=O)CCNS(=O)(=O)c2ccccc2)CC1	0%
CN(C)CCSc1nc(N)c2c3c(sc2n1)CN(C)CC3	-7%
CCn1cc(C(=O)NCC2CCCO2)c2cc(OC)c(OC)cc2c1=O (stereo not drawn)	1%
CCCCc1cc(=O)oc2cc(OCc3nn[nH]n3)c(Cl)cc12	4%
Nc1cccc([N+](=O)[O-])c1	-17%
CCCCn1c(SCC(=O)Nc2nnc(C)s2)nc2c1c(=O)n(C)c(=O)n2C	-7%
CN(C)C(=O)c1ccc(-c2nc(NC3CCNCC3)c3ccccc3n2)cc1	30%
Cn1c(CNC(=O)Cc2ccc3c(c2)OCO3)nnc1SCc1ccccc1	14%
O=P1(NC2CCCC2)COc2ccccc2OC1	-12%
N#Cc1c(NC(=O)c2nc3ncccn3n2)sc2c1CCCCC2	4%
O=C(Cn1ncc2c3ccccc3n(Cc3ccccc3F)c2c1=O)N1CCC2(CC1)OCCO2	131%
Cc1cc(=O)oc2cc3c(cc12)OCCO3	-10%
COc1ccccc1-c1cc(C(=O)Nc2cc(C)nn2-c2ccccc2)no1	56%
COCCn1c(C)cc(C(=O)COC(=O)c2ccc(N3CCCC3=O)cc2)c1C	101%
CC1Cc2ccccc2N1C(=O)Cn1cnc2ccccc2c1=O (stereo not drawn)	4%
Cc1ccc(C(=O)Nc2cccc(C(=O)NCc3ccccc3)c2)o1	-10%
COc1ccc(C(=O)NCC(c2ccc(F)cc2)N2CCOCC2)cc1S(=O)(=O)N1CCCC1 (stereo not drawn)	100%
CC(C)CC(c1nnnn1CC1CCCO1)N1CCN(c2cccc(Cl)c2)CC1 (stereo not drawn)	91%
COc1ccc(CNc2ncncc2-c2cccc(NS(C)(=O)=O)c2)c(OC)c1	38%
COCCn1c(C)nc2oc3ccc(Br)cc3c(=O)c2c1=O	-20%
O=C(NC1=NC2CCCCC2N1)c1ccccc1 (stereo not drawn)	-19%
O=C(OCc1ccc2c(c1)OCO2)c1ccc(S(=O)(=O)N2CCCCC2)cc1	-10%
C=CCn1c(Cc2cccs2)nnc1SCC(=O)Nc1cc(OC)cc(OC)c1	18%
COc1ccccc1CNC(=O)[C@@H]1CCCN1C(=O)C1CCN(S(=O)(=O)c2ccc(C)cc2)CC1	91%
c1ccc(COc2ccc(OCCOCCn3cncn3)cc2)cc1	58%
CCOC(=O)c1sc2nc(N3CCOCC3)c3c(c2c1N)CC(C)(C)N(C)C3	4%
O=C(CC12CC3CC(CC(C3)C1)C2)NCC(=O)N1CCCC1	6%
CCOC(=O)c1c(C)c(C(=O)N2CCN(c3cccc(Cl)c3)CC2)c(C)n1C	123%
CCN(CC)CCOC(=O)c1cccc(Br)c1	-3%

# Continued.
smiles	AmpC nodet inh
O=c1[nH][nH]c2nc(C(F)(F)F)cc(C(F)(F)F)c12	-2%
COc1ccc(Cc2nnc(SCC(=O)Nc3nc(C)cs3)o2)cc1	57%
COc1ccc(N2C(=O)C(CC(=O)O)S/C2=C\C(C)=O)cc1 (stereo not drawn)	-5%
COc1ccc(CN(Cc2cc3ccc(C)cc3[nH]c2=O)Cc2nnnn2C2CCCC2)cc1	65%
CCOC(=O)c1cc(CC)sc1NC(=O)Cc1ccsc1	-2%
COC(=O)c1ccc(COC(=O)c2ccccn2)cc1	-4%
C=CCNC(=O)c1ccc(C)cc1Cl	0%
COc1cccc(N2CCN(Cc3ccc(Cl)cc3)CC2)c1	31%
COc1cccc(-c2nc(NCc3ccc(OC)cc3OC)c3ccccc3n2)c1	-21%
CS(=O)(=O)c1ccc2nc(NC(=O)C3C4C=CC(C4)C3C(=O)O)sc2c1 (stereo not drawn)	-16%
O=C(NCCC1=CCCCC1)N[C@@H](Cc1ccccc1)C(=O)O	14%
CCOC(=O)C1CCCN(C(=O)C(C)Oc2ccc(Cl)cc2Cl)C1 (stereo not drawn)	68%
Cc1cccc(CN2CCNC2=O)c1	-10%
COc1ccc(N2CCN(C(c3ccccc3)c3nnnn3Cc3ccc(F)cc3)CC2)cc1 (stereo not drawn)	48%
COc1ccc(CCNC(=O)CSc2nnc(-c3cccc(C)c3)o2)cc1OC	21%
Cc1cc(-n2c(C)cc(C(=O)CSc3nnnn3-c3ccccc3)c2C)no1	1%
Nc1ccc2oc(-c3ccccn3)nc2c1	-18%
Nc1ncnc2c1ncn2[C@@H]1O[C@@H](CO)[C@H](O)[C@@H]1O	0%
Cc1noc(C)c1C(=O)N1CCc2ccccc2C1	0%
O=C(CCS(=O)(=O)Cc1ccccc1F)N1CCc2ccccc2C1	7%
COc1ccc(C(CNC(=O)COc2ccccc2OC)N(C)C)cc1OC (stereo not drawn)	-5%
Cc1c(/C=N/n2cnnc2)c2ccccc2n1C	4%
Cc1ccc(OCc2nnc(SCC(=O)CC(=O)Nc3ccccc3)o2)cc1	14%
COc1ccc(CCNC(=O)C2=COCCO2)cc1	-11%
COc1ccc(N(CC(=O)Nc2nc3ccc(C)cc3s2)S(=O)(=O)c2c(C)nn(C)c2C)cc1	102%
CC(=O)c1cccc(NC(=O)c2cc(-n3cnnc3)ccc2Cl)c1	-13%
CCC1CCCCN1C(=O)CSc1nc(N)c(NC(=O)c2ccc(OC)c(OC)c2)c(=O)[nH]1 (stereo not drawn)	-12%
CCc1cccc(CC)c1N(COC)C(=O)CCl	4%
C[C@@H]1[C@H]2C=C[C@@H]1[C@@H](c1c3ccc(=O)c(O)c-3oc3c(O)c(O)ccc13)[C@@H]2C(=O)O	2.5µM*
CCOc1cc(C(=O)N2CCc3cc(OC)c(OC)cc3C2)ccc1OC(F)F	-11%

# The closing 4 entries of the section before lead into the next.
smiles	AmpC nodet inh
CCC1CCCCN1C(=O)CSc1nc(N)c(NC(=O)c2ccc(OC)c(OC)c2)c(=O)[nH]1 (stereo not drawn)	-12%
CCc1cccc(CC)c1N(COC)C(=O)CCl	4%
C[C@@H]1[C@H]2C=C[C@@H]1[C@@H](c1c3ccc(=O)c(O)c-3oc3c(O)c(O)ccc13)[C@@H]2C(=O)O	2.5µM*
CCOc1cc(C(=O)N2CCc3cc(OC)c(OC)cc3C2)ccc1OC(F)F	-11%
O=C(CSc1ncccc1C(=O)O)c1ccccc1	-8%
COc1ccc(OC)c2[nH]c(=O)c(CCNS(=O)(=O)c3ccc(C)cc3)cc12	43%
O=C(c1ccccc1)c1ccc(OCC(O)CN2CCOCC2)cc1 (stereo not drawn)	21%
CCCN1CCO[C@@H]2c3cc(O)ccc3OC[C@@H]21	11%
CCOC(=O)c1cnc(NCc2ccccc2)nc1C	0%
CCC1(c2ccc(F)cc2)NC(=O)N(CC(=O)c2ccc[nH]2)C1=O (stereo not drawn)	-15%
COc1ccc(CCNC(=O)CSc2nc(-c3ccco3)cc(C(F)(F)F)n2)cc1OC	48%
NC1(P(=O)(O)O)CCCCC1	0%[5.75 µM]
c1ccc(N2CCN(c3ccccc3)C2c2cccs2)cc1	-16%
CCCNC(=O)C1CCN(S(=O)(=O)c2ccc(Br)cc2)CC1	10%
C[C@H]1CCCC(=O)CCC/C=C/c2cc(O)cc(O)c2C(=O)O1	-7%&-14%&-17%
O=C(Cc1cccs1)N1CCCC(c2nc3c(nnn3Cc3cccc(Cl)c3)c(=O)[nH]2)C1 (stereo not drawn)	93%
COc1cc(OC)c(C2=NOC(C(=O)Nc3cc(C)nn3-c3ccccc3)C2)cc1Cl (stereo not drawn)	78%
COCCNC(=O)c1ccc(C(=O)NCCOC)s1	-6%
CC(C)(C)NC(=O)C(c1ccco1)N(C(=O)Cn1nnc(-c2ccc(F)cc2)n1)c1ccccc1 (stereo not drawn)	57%
Cc1ccc(Cn2nnc3c(=O)[nH]c(C4CCN(S(=O)(=O)c5cc(C)ccc5C)CC4)nc32)cc1	28%
Nc1nonc1-c1nc2ccccc2n1Cc1ccccc1	-11%
Cc1ccc(Cl)cc1N1CCN(C(=O)C2CCN(S(=O)(=O)c3cnc[nH]3)CC2)CC1	86%
O=C1C(Cl)=C(NCC2CCCO2)C(=O)N1Cc1ccccc1 (stereo not drawn)	-4%
COc1ccc2c(c1)Cc1cc(N=[N+]([O-])c3ccc4c(c3)Cc3cc(OC)ccc3-4)ccc1-2	0%[5.75 µM]
COC(=O)[C@H]1C[C@@H]1[C@H](NC(=O)OCc1ccccc1)c1ccccc1	16%
COc1ccc(NC(=O)c2cccc(Cn3cc(Br)cn3)c2)cn1	1%
O=C(Nc1ccon1)c1ccccc1Cl	-3%
O=C(CCCn1c(=S)[nH]c2cc3c(cc2c1=O)OCO3)N1CCN(c2ccc(F)cc2)CC1	5%
COc1ccccc1C[C@@H](Cc1nc2ccccc2[nH]1)c1nc2ccccc2[nH]1	-11%
O=C(NCCC1=CCCCC1)c1ccc(F)c(S(=O)(=O)N2CCOCC2)c1	34%
CCN(CC)c1ncnc2sc(C(=O)N3CCN(c4ccccc4)CC3)c(C)c12	96%
CC(Cc1ccccc1)C(=O)NCCO (stereo not drawn)	22%
Cc1ccc(S(=O)(=O)N2CCN(C(=O)C3Cc4ccccc4CN3C(=O)c3ccco3)CC2)cc1 (stereo not drawn)	80%
O=C1c2ccccc2C(Nc2ccc3c(c2)OCO3)N1Cc1ccc2c(c1)OCO2 (stereo not drawn)	-21%

# Remaining list, next part.
smiles	AmpC nodet inh
CCC(C)(C)NC(=O)CN(Cc1ccc2c(c1)OCO2)C(=O)CCC(=O)Nc1ccccn1	60%
Cc1c2ccccc2c(CSC(=N)N)c2ccccc12	-12%[5.75 µM]
CCOC(=O)c1c(NC(=O)CSc2nnnn2C)sc(CC)c1C	85%
COC(=O)c1[nH]c2ccc(Cl)cc2c1NC(=O)CCN1CCOCC1	-6%
CCCc1nc2ccccc2c(=O)n1/N=C/c1ccc(O)cc1	71%
COc1ccccc1CC(=O)Nc1ccc(OC)c(OC)c1	-2%
CCOc1ccc(NC(=O)CN(c2ccc(OC)cc2)S(C)(=O)=O)cc1	8%
CC(=O)N(Cc1cc(=O)[nH]c2ccccc12)c1ccccc1	-6%
COc1ccc(OC)c(NC2c3ccccc3C(=O)N2Cc2ccc3c(c2)OCO3)c1 (stereo not drawn)	4µM*[single pt active]
Cc1cc(OCc2nc(-c3cccnc3)no2)c(C)cc1Br	7%
COC(=O)C1C(=O)c2c([nH]c(C(=O)OC3CCCC3C)c2C)CC1C (stereo not drawn)	38%
Cc1nn(-c2ccccc2)c2sc(C(=O)c3c(N)n(C)c(=O)n(C)c3=O)cc12	22%
COc1ccc(S(=O)(=O)N2CCCC(C(=O)Nc3ccc(NC(=O)c4ccccn4)cc3)C2)cc1 (stereo not drawn)	32%
O=C(Cn1cnc2scc(-c3ccccc3)c2c1=O)N1CCOCC1	-1%
C[N+](C)(C)CCN[N@@+]1(C)CCCc2ccccc21	-4%[5.75 µM]
O=C(NC1CCCCC1)C(c1ccco1)N(Cc1cccs1)C(=O)Cn1nnc2ccccc21 (stereo not drawn)	9%
Oc1cc2c(cc1O)[C@H]1c3ccccc3CN[C@H]1CC2	15%
O=C(COc1ccc(Cl)cc1)NCc1nnc(SCC(=O)N2CCCCC2)o1	38%
CN1CCN(CCCNC(=O)c2cc3c(-c4ccc(Cl)cc4)nn(C)c3s2)CC1	170%
CCc1ccc(OCC(=O)N(C)CCC#N)c(Br)c1	23%
COc1cccc(C2CC(c3cccs3)Nc3ncnn32)c1 (stereo not drawn)	12%
C[C@H](O)CO[C@H]1[C@H]2O[C@H]3[C@H](O)[C@@H](O)[C@@H](O[C@H]4[C@H](O)[C@@H](O)[C@@H](O[C@H]5[C@H](O)[C@@H](O)[C@@H](O[C@H]6[C@H](O)[C@@H](OC[C@H](C)O)[C@@H](O[C@H]7[C@H](O)[C@@H](OC[C@H](C)O)[C@@H](O[C@H]8[C@H](O)[C@@H](O)[C@@H](O[C@@H]([C@@H]1O)[C@@H](CO)O2)O[C@@H]8CO)O[C@@H]7CO)O[C@@H]6CO)O[C@@H]5CO)O[C@@H]4CO)O[C@@H]3CO	18%
CC(C)[C@@H](Br)C(=O)NCC(=O)O	-3%[5.75 µM]
COc1ccc(-c2noc(COc3ccc(C)c(C)c3)n2)cc1OC	80%
CCn1c(-c2ccc3[nH]c(C)c(C)c3c2)n[nH]c1=S	-13%
CC(=O)C1C(=O)CC(C)(O)C(C(C)=O)C1c1ccc(N(C)C)cc1 (stereo not drawn)	-3%
O=C(O)CCc1ccc(-c2ccc(F)cc2)n1NC(=O)c1ccco1	13%
Cc1c(=O)n(OCc2ccccn2)c2ccccc2[n+]1[O-]	8%
CCC(NC(=O)c1ccccc1NC(=O)c1ccco1)C(=O)NC1CCCCC1 (stereo not drawn)	-3%
NC(=O)CN1C(=O)C2C3C=CC(C3)C2C1=O (stereo not drawn)	-12%
c1cnc(N2CCCC3(CCNCC3)C2)nc1	-6%
N#CC1(O)CCCCC1	-1%

# 5 records drawn at random from those above, as already listed:
smiles	AmpC nodet inh
COc1ccccc1CC(=O)Nc1ccc(OC)c(OC)c1	-2%
O=C(COc1ccc(Cl)cc1)NCc1nnc(SCC(=O)N2CCCCC2)o1	38%
C[C@H](O)CO[C@H]1[C@H]2O[C@H]3[C@H](O)[C@@H](O)[C@@H](O[C@H]4[C@H](O)[C@@H](O)[C@@H](O[C@H]5[C@H](O)[C@@H](O)[C@@H](O[C@H]6[C@H](O)[C@@H](OC[C@H](C)O)[C@@H](O[C@H]7[C@H](O)[C@@H](OC[C@H](C)O)[C@@H](O[C@H]8[C@H](O)[C@@H](O)[C@@H](O[C@@H]([C@@H]1O)[C@@H](CO)O2)O[C@@H]8CO)O[C@@H]7CO)O[C@@H]6CO)O[C@@H]5CO)O[C@@H]4CO)O[C@@H]3CO	18%
COC(=O)C1C(=O)c2c([nH]c(C(=O)OC3CCCC3C)c2C)CC1C (stereo not drawn)	38%
CC(C)[C@@H](Br)C(=O)NCC(=O)O	-3%[5.75 µM]
